# Vif A3G – inhibitors of Vif binding to APOBEC3G peptide, primary screen, biochemical, TR-FRET, GST-Vif 1-94, biotin-A3G peptide, dose response retest (AID 1117319); TR-FRET GST-Vif / biotin-A3G peptide binding; higher % means a stronger effect; test concentration not given here; strong numbers were not always called active; inhibition, %; hits with a dose series show IC50 in µM; 0.57% of 260,000 active;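 active = above the screen mean plus three standard deviations and confirmed in dose response; inconclusive = results disagree or hit not tested in dose response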;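 also: Vif residues 1-94 fused to GST binding biotinylated APOBEC3G peptide 110-148; 0% = full assay without inhibitor and 100% = GST in place of GST-Vif; retest series ran down from 100 µM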
# T cruzi repl – inhibitors of intracellular T. cruzi growth, primary screen, luminescence, NIH3T3 host cells. T. cruzi beta-gal in NIH3T3, 90 h. inhibition, % (no concentration beside the values). 1.4% of 300,000 active;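 active = mean inhibition across valid replicates above about 55%, limit read from the data; inconclusive = mean below that limit but half or more replicates reach it; inactive = mean below it, under half of replicates reach it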;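 also: signal also drops with host cell toxicity which is not excluded here; 0% = plate median of DMSO wells and 100% = zero luminescence signal; higher percent means less beta-gal luminescence so fewer parasites; stock transfer was 50 nL into about 50 µL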
# Calb FLC – C. albicans growth inhibition with fluconazole, primary screen, CaCi-2 strain, Alamar Blue fluorescence; growth inhibition, % (test concentration not listed); C. albicans CaCi-2 (fluconazole-resistant clinical isolate) + fluconazole, 48 h; AID 1979, 2009; 0.57% of 300,000 active;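 active = most replicates above 75%; inconclusive = exactly half above 75%; inactive = most below 75%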;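 also: all wells also contain fluconazole at 8 µg/ml as a sub-toxic cotreatment; 0% = median of DMSO wells and 100% = median of geldanamycin control wells; wells of about 8 µL received 7.5 nL stock; the first replicate is given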
# rRNA inh HTS – reduced GFP signal of wild-type E. coli, primary screen, bacterial rRNA inhibitor project, GFP/RFP fluorescence, OD600, single point; GFP signal change (wild-type ribosome), % (test concentration not listed); 1.6% of 350,000 active; E. coli WT GFP vs humanized-ribosome RFP mutants, 24 h; active compounds read low; DMSO median 0, no signal -100;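 active = significant combined selectivity score with lowered wild-type GFP, culture density cut under 30%, mutant RFP and density less affected; inactive = any of these conditions unmet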; also: one replicate is shown; some compounds called inactive have numbers as strong as hits
# RanGTP-Impb inh – inhibitors of RanGTP-importin-beta interaction, primary screen, biochemical, FRET, CFP-Ran, YFP-importin-beta, homogeneous; Ran GTPase (GTP-bound) - importin-beta complex; cell-free CFP-Ran/YFP-importin-beta FRET ratio; inhibition, % (no concentration beside the values); 1.1% of 300,000 active; AID 2216, 2009;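 active = most replicates above 15%; inconclusive = exactly half above 15%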;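 also: 0% = DMSO wells and 100% = Ran loaded with GDP instead of GTP; wells of about 40 µL received 100 nL stock; the first replicate is given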
# Beta apoptosis – inhibitors of cytokine-induced beta cell apoptosis, primary screen, luminescence. protection from apoptosis, % (no concentration beside the values). AID 435005, 2010. INS-1E cytokine-induced death, ATP luminescence, 48 h; percent of positive-control rescue, neutral wells zero. 0.8% of 300,000 active;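 active = all replicates at 75% or more, or half of them and the mean; inconclusive = half reach 75% but not the mean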;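 also: 0% = cytokine-treated negative control wells and 100% = positive control rescue; higher means more ATP so stronger rescue from cytokine killing; wells of about 40 µL received 100 nL stock; the first replicate is given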
# Bfl-1 A1 inh – caspase 3/7 activation in MEF A1-2A-BIM cells, primary screen, A1 inhibitor project, cell-based, luminescence, HTS; Caspase-Glo 3/7 luminescence, 3 h; percent of clofoctol response, vehicle zero; caspase activation, % (no concentration beside the values); 0.066% of 330,000 active; AID 2462, 2010;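 active = over half of replicate activation scores above 10%, or exactly half above 10 with the replicate mean above 10; inconclusive = replicate mean below 10 yet half the replicates above 10; inactive = over half of replicates below 10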;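 also: wells of about 30 µL received 50 nL stock; many hits fall short of the cut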
# MLL AF4-AF9 inh – inhibitors of AF4 peptide binding to AF9, primary screen, biochemical, AlphaScreen, biotin-AF4 peptide, FLAG-AF9, single point. Protein AF-9 (Homo sapiens), P42568. inhibition, % at 10 µM. 0.47% of 350,000 active. AID 651704, 2012;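 active = every replicate reaching a set inhibition limit, whatever the replicate mean, cut at about 25% in these data; inconclusive = mean inhibition reaches that limit but some replicates miss it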;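 also: 0% = plate neutral control median and 100% = total signal loss; the record names both 10 and 1 µM as test concentration; the first replicate is given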
# Target sequence (P42568 whole entry, looked up): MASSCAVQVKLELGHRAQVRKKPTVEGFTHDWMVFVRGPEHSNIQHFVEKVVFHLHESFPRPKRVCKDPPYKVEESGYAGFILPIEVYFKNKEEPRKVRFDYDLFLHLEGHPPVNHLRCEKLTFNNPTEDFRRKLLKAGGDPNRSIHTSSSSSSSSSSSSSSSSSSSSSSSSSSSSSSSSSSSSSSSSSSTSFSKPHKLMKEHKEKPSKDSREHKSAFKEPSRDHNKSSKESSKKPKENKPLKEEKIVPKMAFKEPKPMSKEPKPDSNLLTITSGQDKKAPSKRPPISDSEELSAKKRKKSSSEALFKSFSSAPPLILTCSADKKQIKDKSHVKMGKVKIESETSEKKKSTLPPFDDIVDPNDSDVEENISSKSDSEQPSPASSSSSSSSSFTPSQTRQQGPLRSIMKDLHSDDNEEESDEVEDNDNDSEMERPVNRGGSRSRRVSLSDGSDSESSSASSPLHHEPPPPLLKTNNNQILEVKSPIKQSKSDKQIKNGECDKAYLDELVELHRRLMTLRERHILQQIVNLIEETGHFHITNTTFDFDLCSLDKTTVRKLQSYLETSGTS
# rRNA inh HTS OD600 – recorded beside rRNA inh HTS, whose call it bears; OD600 change, %; measured here: OD600 growth;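 optical density of the mix in the first replicate; 0 = DMSO median and -100 = no signal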
# rRNA inh HTS RFP – further read-out of rRNA inh HTS, marked with its call; RFP signal change, %; measured here: RFP humanized mutant strains;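 first replicate; 0 = DMSO median and -100 = no signal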
# Numbers without * were called inactive; i = inactive; ? = inconclusive; . = not tested or not shown; & = joins results of further samples. This is a subset; rates above refer to the full screens.
no.	compound	Vif A3G	T cruzi repl	Calb FLC	rRNA inh HTS	rRNA inh HTS OD600	rRNA inh HTS RFP	RanGTP-Impb inh	Beta apoptosis	Bfl-1 A1 inh	MLL AF4-AF9 inh
1	COc1cc(OC)cc(-c2c(C#Cc3ccsc3)c3cc(-c4ccc5[nH]ccc5c4)ccc3n2C)c1	.	.	.	11	14	4.3	.	1	0.8	2.4
2	Cc1c(NC(=O)c2ccc(NS(=O)(=O)c3ccccc3)cc2)c(=O)n(-c2ccccc2)n1C	.	-7	-1	13	5	5.0	?	-5	-0.2	-2.8
3	Cc1nc2sc3c(c2c(=O)n1NC(=O)CCl)CCCC3	14%	-8	9	10	3	-8.6	?	-5	-0.2	-1.5
4	CCN(CC(=O)NC(C)(C)C)C(=O)c1ccc(Br)cc1	.	.	-15	6	8	-2.6	.	1	1.3	0.3
5	CC(O)(C#CCN1CCCCC1)c1ccccc1 (stereo not given)	23%	-16	0	.	.	.	3.6	-5	0.2	.
6	CCOc1c2ccc(C(=O)NCc3ccc4c(c3)OCO4)cc2nn1CC	1%	16	-14	-44	-72	-10	4.9	4	-1.1	-7.8
7	CC(SCc1ccccc1)C(=O)Nc1ccccc1Br (stereo not given)	.	24	9	-2	-3	-2.5	3.7	5	0.7	0.8
8	COC(=O)[C@@]12CCCCN1[C@H](c1ccc(-c3ccc(Cl)c(Cl)c3)cc1)[C@H]1C(=O)N(C)C(=O)[C@H]12	.	.	.	24	16	9.0	.	4	0.2	-15
9	Cc1cccc(N2CCN(C(=O)c3ccc4nc[nH]c4c3)CC2)c1C	?	9	20	-17	-15	8.8	-1.4	-12	-1.7	-27
10	CC(=O)NC(=S)Nc1ccc(N2CCOCC2)c(S(=O)(=O)Nc2cc(Cl)ccc2Cl)c1	8%	10	6	-17	-14	2.7	-4.7	-3	0.7	-3.0
11	COC(C(=O)NCc1ccc(C)cc1)c1ccccc1 (stereo not given)	6%	-7	18	10	9	-3.4	-3.5	-8	0.9	-1.3
12	COc1cccc(/C=N/NC(=S)Nc2cccc(S(=O)(=O)N(C)C)c2)c1	-9%	-5	-9	-18*	2.1*	8.0*	3.5	-1	0.3	0.0
13	CCn1cc(S(=O)(=O)Nc2ccc(Cl)cc2F)cn1	2%	1	2	4	-3	0.4	-7.4	3	-0.5	-2.1
14	Cc1ccc(SCCNC(=O)/C=C/c2ccccc2Cl)cc1	12%	26	8	-24*	-4.1*	0.6*	-2.8	-1	0.3	-0.9
15	Cn1c(SCC(=O)N2CCOCC2)nnc1-c1ccc(NC(=O)c2ccccc2F)cc1	30%	-17	-4	.	.	.	-0.1	-8	-0.4	.
16	O=C(COc1ccc([N+](=O)[O-])cc1)NCc1cccnc1	11%	-3	-1	13	14	-1.5	-1.3	-6	0.9	-0.2
17	Cc1cc(S(=O)(=O)N(C)CCc2ccccc2)ccc1-n1cnnn1	-4%	6	1	.	.	.	-2.7	-2	-0.1	.
18	CCOc1cc(-c2ccccc2)nc(N)n1	4%	-15	-21	.	.	.	2.0	-6	-2.1	.
19	CCCn1c(N)c(C(=O)COc2ccc(Br)cc2F)c(=O)n(C)c1=O	-12%	13	-1	-4	-7	-6.0	1.6	0	-0.1	-1.2
20	CCCCCCSc1cccc(-c2nc3ccccn3c2NCc2ccccc2)c1	.	.	.	-1	-17	-11	.	?	-1.2	2.3&11
21	COc1ccc(C(=O)NNC(=O)C2CC=CCC2)cc1 (stereo not given)	-6%	-8	-5	11	8	0.9	-3.8	2	-0.5	0.5
22	CC1CCCCC1NC(=O)c1cccc(N2C(=O)C3C4C=CC(C4)C3C2=O)c1 (stereo not given)	.	2	-2	4	7	-1.6	-3.3	9	0.5	-0.3
23	C=Cn1ccnc1CC(O)c1ccc(OC)cc1 (stereo not given)	.	-7	-4	1	6	-4.1	-2.0	-8	1.1	-0.8
24	Cc1cc(=O)n2nc(N3CCC(C(=O)N4CCN(Cc5ccccc5)CC4)CC3)sc2n1	3%&-3%	6	-7	.	.	.	1.8	3	-0.3	.
25	COc1ccc(C=C(C(C)=O)C(C)=O)cc1OC	21%	-2	5	.	.	.	4.7	2	0.5	.
26	CCOC(=O)c1c(NC(=O)C2c3ccccc3Oc3ccccc32)sc(C(N)=O)c1C	7%	23	-4	.	.	.	2.4	9	1.4	.
27	Clc1ccc(C2=CSC3=NCCN23)c(Cl)c1	.	10	2	2	-5	-0.8	-1.8	3	0.1	1.0
28	Cc1c(N=NC2=C(O)CC(C)(C)CC2=O)c(=O)n(-c2ccccc2)n1C	17%	-5	96*	17	14	2.1	4.7	1	-0.1	-6.2
29	Cc1nc2ccc(N)cc2c(=O)n1Cc1ccc(Cl)cc1	23%	18	1	.	.	.	5.1	-7	-1.8	.
30	CCOC(=O)CSc1ncnc2c1cnn2-c1ccc(C)cc1C	15%	-6	10	-21	-19	-3.9	0.6	-5	0.3	-1.2

# Next part
no.	compound	Vif A3G	T cruzi repl	Calb FLC	rRNA inh HTS	rRNA inh HTS OD600	rRNA inh HTS RFP	RanGTP-Impb inh	Beta apoptosis	Bfl-1 A1 inh	MLL AF4-AF9 inh
31	Cc1c(Br)c([N+](=O)[O-])nn1CC(=O)NCc1ccccn1	0%	24	0	.	.	.	3.1	-7	-0.1	.
32	Cc1ccc(C(=O)OCC(=O)NC(=O)c2cccn2C)cc1[N+](=O)[O-]	-8%	-16	5	8	2	-1.8	2.2	-8	0.3	0.8
33	Cc1ccc(C)c(S(=O)(=O)Nc2ccc(C(=O)NCCCN3CCOCC3)cc2)c1	4%	1	-2	10	3	-1.6	?	-7	0.3	-0.6
34	O=C(N/N=C\c1ccc(-c2ccccc2[N+](=O)[O-])o1)C1COc2cc3ccccc3cc2O1 (stereo not given)	10%	-9	2	.	.	.	?	.	-0.2	.
35	Cc1cc(CC(C)C)n(-c2nc3ccccc3c(=O)n2OCC(N)=O)n1	1%	-5	7	.	.	.	0.7	5	0.2	.
36	O=C(NCC(c1ccco1)N1CCN(c2ccccc2)CC1)c1ccc2c(c1)OCO2 (stereo not given)	9%	8	-6	-1	-21	2.0	-4.9	6	-0.1	5.4
37	Cc1cc(CNC(=O)c2cccc(OC3CCN(S(=O)(=O)N(C)C)CC3)c2)on1	14%	12	20	1	-2	-1.9	0.3	3	-1.3	-1.3
38	COCn1c(-c2cccc(Br)c2)nc2ccccc21	1%	9	-15	.	.	.	0.3	-1	.	.
39	COC(=O)c1ccc(OCCN2C3=NCCN3c3ccccc32)cc1	0%	34	-20	.	.	.	?	2	-0.6	.
40	CCOC(=O)NC1(C(F)(F)F)C(=O)N(Cc2ccccc2)C2=C1C(=O)CC(C)(C)C2 (stereo not given)	1%	-5	3	.	.	.	7.5	-15	-0.1	.
41	Cc1ccc(C)c(-c2nnc(NC(=O)c3ccco3)o2)c1	6%	0	83*	-38	-47	-14	-0.5	1	0.2	2.1
42	Nc1c(Cl)ncnc1N1CCN(c2ncnc(Cl)c2N)CC1	-3%	-2	-9	3	2	-4.0	1.7	-8	0.8	-0.2
43	CCc1ccc(Nc2n[n+](-c3ccccc3)c(-c3ccc(C(=O)O)cc3)s2)cc1	.	-3	-1	-2	-5	-0.2	8.6	-8	-2.0	-1.0
44	COc1ccc2[nH]c(=O)c(C(c3nnnn3C3CCCC3)N3CCN(Cc4ccc5c(c4)OCO5)CC3)cc2c1 (stereo not given)	14%	40	-5	.	.	.	2.0	3	0.2	.
45	CCOCc1c(C(=O)NCC(c2ccco2)N2CCCC2)oc2ccccc12 (stereo not given)	.	.	.	7	10	2.9	.	-1	-0.1	0.2
46	Cc1csc2c(=O)sc(NC(=O)c3cccs3)nc12	i	-8	0	.	.	.	0.4	5	-0.4	-1.0
47	CN(C)c1cc[n+](CC(=O)N2c3ccccc3Sc3ccccc32)cc1	-1%	.	-16	-8	-16	37	.	21	-0.8	3.3
48	Cc1cccc(-c2cc3nc(-c4ccccc4)cc(=O)n3[nH]2)c1	.	-5	20	-26	-21	-5.6	-1.3	9	-4.7	1.0
49	O=C(NCCCN1CCOCC1)c1cnccn1	-7%	-7	-5	18	13	1.2	5.5	.	1.0	-1.7
50	Cn1cc(Br)c(C(=O)NN2C(=O)C3C(C2=O)C2C=CC3C23CC3)n1 (stereo not given)	-10%	-14	-9	6	1	-0.9	6.7	-3	-0.1	-1.4
51	COc1ccc(CCNC(=O)C2CCN(S(=O)(=O)c3ccc(F)cc3)CC2)cc1	.	0	-3	8	8	1.0	0.2	4	-0.1	-0.2
52	COc1cc(C(C)=O)ccc1OCC(=O)Nc1ccc(Cl)c(S(=O)(=O)N2CCOCC2)c1	-6%	.	.	-32	-37	-6.3	.	2	0.5	1.3
53	CCOC(=O)Nc1ccccc1N1C(=O)c2ccccc2C1=O	-6%	7	-6	.	.	.	-5.6	-3	-0.2	.
54	CC(=O)c1ccc(OCCCC(=O)NC2CCCc3ccccc32)cc1 (stereo not given)	.	15	-12	-4	-6	-2.5	0.2	-1	-0.4	7.9
55	Cc1ccc(S(=O)(=O)N(C)CC(=O)NCCc2c[nH]c3ccccc23)cc1	.	6	14	-10	-15	4.3	8.3	-25	-0.1	-5.0
56	COc1cccc(CN(C)C(=O)c2csc3c2CCCC3)c1OC	1%	-2	-5	2	-3	-2.2	?	-8	-0.2	2.9
57	CCOC(=O)c1sc(N)nc1C(C)C	-4%	-11	1	.	.	.	0.2	-11	-0.2	.
58	Cc1cc(C(=O)NCC(=O)Nc2c(C)cccc2C)c(C)o1	6%	-9	0	8	3	2.3	-2.0	.	0.2	-1.4
59	CCOc1cccc(-c2c(C(=O)N/N=C/c3ccoc3)nnn2-c2nonc2N)c1	.	-27	-1	4	8	-0.2	1.9	.	0.9	3.9
60	OCCC1CN(Cc2cnc(-c3ccc(Cl)cc3)nc2)CCN1C1CCCCC1 (stereo not given)	14%	52	1	-18*	-7.0*	2.2*	6.6	1	0.1	2.4
61	CCc1ccc(C(=O)NCC2COc3ccccc3O2)o1 (stereo not given)	-2%	-3	13	.	.	.	2.8	-5	-0.2	.
62	Cc1cccc(Nc2ccc3nonc3c2[N+](=O)[O-])c1C	-2%	-9	6	3	12	3.6	0.4	-29	1.8	0.9
